KCNQ2 enhance: enhances the rat KCNQ2 potassium channel; O88943; CHO-K1 KCNQ2, FluxOR thallium flux fluorescence; active compounds read high; actives 0.54% (n = 310,000); B-score at 10 µM;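 active = fluorescence ratio B-score at least 3 SD of library B-scores, with initial fluorescence B-score within 3 SD, cut at about 5.3 in these data; same plate scores as AID 2156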;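 also: B-score of peak minus minimum over baseline fluorescence ratio after K+ and Tl+ stimulus; positive B-score means potentiation of KCNQ2 with more thallium influx and brighter signal; only the inactives scoring about 0 or higher are listed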
Target sequence (O88943 whole entry, looked up): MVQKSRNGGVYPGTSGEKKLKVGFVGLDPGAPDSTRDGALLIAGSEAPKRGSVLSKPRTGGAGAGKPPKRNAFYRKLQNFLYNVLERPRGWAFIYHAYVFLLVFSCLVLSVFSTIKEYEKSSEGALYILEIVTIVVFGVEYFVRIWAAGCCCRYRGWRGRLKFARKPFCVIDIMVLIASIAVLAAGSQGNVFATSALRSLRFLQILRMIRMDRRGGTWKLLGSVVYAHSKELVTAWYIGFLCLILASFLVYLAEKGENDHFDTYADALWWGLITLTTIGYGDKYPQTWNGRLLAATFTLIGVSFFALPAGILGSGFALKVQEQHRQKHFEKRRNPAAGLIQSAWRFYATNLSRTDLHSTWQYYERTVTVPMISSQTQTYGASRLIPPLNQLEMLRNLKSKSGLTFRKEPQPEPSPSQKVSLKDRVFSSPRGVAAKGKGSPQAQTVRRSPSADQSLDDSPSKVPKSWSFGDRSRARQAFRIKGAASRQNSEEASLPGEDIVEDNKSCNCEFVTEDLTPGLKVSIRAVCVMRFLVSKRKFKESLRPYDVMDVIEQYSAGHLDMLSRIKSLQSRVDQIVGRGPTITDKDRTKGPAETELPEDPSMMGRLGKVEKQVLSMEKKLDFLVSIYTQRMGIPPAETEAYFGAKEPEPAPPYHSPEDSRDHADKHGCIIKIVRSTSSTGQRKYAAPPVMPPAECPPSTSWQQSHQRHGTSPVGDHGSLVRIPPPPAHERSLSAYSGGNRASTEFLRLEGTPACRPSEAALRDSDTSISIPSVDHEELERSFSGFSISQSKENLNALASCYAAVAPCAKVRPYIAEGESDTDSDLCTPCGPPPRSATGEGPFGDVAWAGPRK
KCNQ2 enhance baseline: second read-out of KCNQ2 enhance, no call of its own (marks repeat the call); B-score; compound at 10 µM; measured here: initial fluorescence intensity artifact check;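 brightness before thallium and not channel activity; 0 = typical well and far values either way flag optical interference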
* = called active by the depositor. Some of the compounds tested. The share of hits here may be higher or lower than overall.

KCNQ2 enhance | KCNQ2 enhance baseline | smiles
0.03 | 1.5 | Cc1ccc(S(=O)(=O)NC(CC(N)=O)C(=O)O)cc1 (stereo unspecified)
1.48 | -0.95 | COC(=O)C1N[C@@H]([C@@H](NC(=O)COc2ccccc2)C(=O)NC2CC2)SC1(C)C (stereo partly specified)
1.71 | -0.17 | CC(Cl)C(=O)N1c2ccccc2CCc2ccccc21 (stereo unspecified)
0.89 | 0.49 | CCOC(=O)c1c(NC(=O)CN2C(=O)CN(C)C2=O)sc(C)c1C
0.63 | -0.88 | Cc1nn(-c2ccc(Cl)cc2Cl)c(C)c1C(=O)O
0.22 | -1.29 | CC(C)(C)OC(=O)N[C@@H](Cc1ccccc1)C(=O)N[C@@H](CO)[C@H](O)[C@@H]1C[C@@H]1C(=O)N1CCCC1
1.19 | -1.13 | COCc1cc(C)nc(SCC(=O)Nc2nc(C)cs2)c1C#N
0.05 | -1.57 | CCC(=O)Nc1sc(C(=O)Nc2ccccc2F)c(C)c1C(=O)OC
1.55 | -0.4 | C=CCn1c(SCc2ccc(Cl)cc2)nc2cc(C(=O)N3CCC(C(N)=O)CC3)ccc2c1=O
0.53 | 1.02 | CCOc1cc(/C=N/NC(=O)c2nnn(-c3nonc3N)c2C)ccc1OCc1cccc(F)c1
0.28 | -0.29 | COc1ccccc1C1(CCNC(C)c2cccs2)CCOC(C(C)C)C1 (stereo unspecified)
2.4 | 0.54 | CC1CCCCC1NC(=O)CN1C(=O)NC(C)(c2ccc(OC(F)F)cc2)C1=O (stereo unspecified)
1.55 | -0.93 | Oc1ccccc1N1CCN(C(=S)NCc2ccccc2)CC1
1.05 | 1.83 | O=C(/C=C/c1ccccc1)Nc1ccc(Br)cn1
0.07 | -0.97 | COc1cccc(/C=N/n2c(N)c(S(=O)(=O)c3cccs3)c3nc4ccccc4nc32)c1
0.22 | -0.9 | O=C(N/N=C/c1ccc(OC(F)F)cc1)c1ccc(CSc2nc3ccccc3[nH]2)cc1
2.21 | -1.39 | COc1cc2[nH]c(=S)nc(NCCc3ccc(S(N)(=O)=O)cc3)c2cc1OC
1.67 | -0.09 | CCN1CCN(c2cc3c(nn2)Oc2ccccc2N3C)CC1
0.04 | 0.67 | CCCCc1c(C)[nH]c2nc3ccccc3n2c1=O
2.54 | 0.11 | c1ccc(-c2csc3ncn4nnnc4c23)cc1
0.21 | 0.24 | O=C(c1ccc(Cl)c(S(=O)(=O)N2CCOCC2)c1)N1CCCC1
0.05 | -0.03 | O=C(CNS(=O)(=O)c1cccc(Br)c1)NCCCc1ccccc1
0.57 | 0.04 | O=C(O)C1Cc2ccccc2CN1C(=O)COc1ccc(Cl)cc1 (stereo unspecified)
0.57 | 0.36 | COc1ccc(NC(=O)NC2(C(=O)N3CCCCC3)CCCCC2)cc1
0.15 | 0.01 | O=C(NCc1cccnc1)C(=O)NCC1OCCN1S(=O)(=O)c1ccc(F)cc1 (stereo unspecified)
0.42 | 0.09 | O=C(c1ccncc1)N1CCN(c2ccc(F)cc2)CC1
0.5 | 2.09 | CCCc1nnc(SCC(=O)Nc2ccc(OC)cc2)n1N
0.51 | -1.73 | O=C(COc1ccccc1)Nc1cc2c3c(c1)CC(=O)N3CCC2
0.63 | 0.66 | CC1CCc2nn(CC(=O)NCCN3CCCCC3C)cc2C1 (stereo unspecified)
3 | -0.32 | CN(C)S(=O)(=O)c1ccc(NC(=O)c2cc(-c3cccs3)nc3ccccc23)cc1
1.93 | -0.29 | O=C(Nc1nnc(C2=COCCO2)o1)c1cccc(Br)c1
8.31* | 3.94* | O=c1[nH]cc(N=Cc2cc(Cl)cc(Cl)c2O)c(=O)[nH]1
0.04 | -1.56 | COc1ccc(NC(=O)CC2C(=O)N(C)C(=S)N2Cc2ccco2)cc1 (stereo unspecified)
0.92 | -0.62 | C/C(=C\c1ccccc1)C(=O)Nc1nccs1
1.1 | -0.48 | CC[C@H](C)[C@@H]1NC(=O)c2cc([N+](=O)[O-])cc(F)c2NCCCC[C@@H](C(N)=O)NC(=O)[C@H](CCCCN)NC1=O
0.67 | -0.02 | CSCCC(NS(=O)(=O)c1ccc2c(c1)Cc1cc(S(=O)(=O)NC(CCSC)C(=O)O)ccc1-2)C(=O)O (stereo unspecified)
1.77 | -0.18 | O=C(Cc1ccccc1[N+](=O)[O-])NCCc1ccc(F)cc1
0.4 | 1.28 | CC(=O)c1cccc(NC(=O)N2CCCC2C(=O)NCCC(C)C)c1 (stereo unspecified)
0.51 | 0.67 | CC1(C)NC(=O)N(CCOc2ccc([N+](=O)[O-])cc2)C1=O
1.07 | -3.15 | Cc1cc(Br)ccc1NC(=O)CN(C)C(=O)CCSc1ccc(F)cc1
0.38 | 0.33 | Cc1cccnc1NC(=O)CN1C(=O)c2ccccc2S1(=O)=O
1.76 | -1.06 | CC(=O)Nc1ccc(NC(=O)CSc2nc3nc(-c4cccs4)cc(C(F)(F)F)c3c(=O)[nH]2)cc1
0.55 | -0.14 | N#C/C(=C\c1ccc([N+](=O)[O-])cc1)c1ccccn1
1.11 | 1.59 | CCOC(=O)c1cnn(-c2ccccc2)c1NC(=O)CN1CCOCC1
2.7 | -0.48 | Cc1c(O)ccc2c(CN(C)Cc3ccccc3)cc(=O)oc12
1.3 | -0.2 | Cc1cc(=O)[nH]c(SCCc2ccccc2)n1
0.09 | 0.29 | CCCOc1ccc(CCc2n[nH]c(=S)n2Cc2ccccc2)cc1
0.04 | 0.92 | CC1CCN(c2c(NCc3ccc(C(=O)N(C)C4CCCCC4)cc3)c(=O)c2=O)CC1
1.06 | 0.91 | COc1ccc(CC(=O)NCC(=O)N/N=C/c2ccc(C)o2)cc1
0.58 | -0.22 | Nc1nc2c(s1)C(=O)CCC2
0.76 | -1.06 | COCCCNC(=O)CCC(=O)NNc1nc2ccccc2c2nc(-c3ccccc3)nn12
0.26 | -0.27 | CCn1c(COc2cccc(OC)c2)nnc1SCC(=O)Nc1cccc(OC)c1
1.81 | 1.08 | CN(C)N1C(N)=C(C#N)C(c2ccc(Br)cc2)C2=C1CC(C)(C)CC2=O (stereo unspecified)
0.53 | -1.91 | CC(=O)C(Sc1ccc2nnc(-c3ccc(C)cc3)n2n1)C(C)=O
0.93 | -0.26 | O=C(Nc1cccc(S(=O)(=O)NC2=NCCCCC2)c1)c1cc(-c2ccco2)nc2ccccc12
0.31 | 0.05 | O=C(O)c1nc(-c2ccccc2)n(-c2ccccc2)n1
0.65 | -0.23 | COc1ccc(-c2nc(C(F)(F)F)c(OC)o2)cc1OC
0.02 | 1.67 | CCCc1c(C)nn(-c2ncccc2[N+](=O)[O-])c1C
0.39 | 0.05 | O=C(CN1C(=O)c2cccnc2Oc2ccc(Cl)cc21)NCCc1ccccc1
0.76 | -1.79 | COc1ccc(-c2nnn3c2nc(NCc2ccccc2)c2ccccc23)cc1

Additional records:
KCNQ2 enhance | KCNQ2 enhance baseline | smiles
0.95 | 0.84 | COc1ccc(C(=O)N2CCCC(C(=O)c3ccccc3OC)C2)cc1OC (stereo unspecified)
1.84 | -2.06 | O=C1C2CCCCC2C(=O)N1c1ccc(NC2CCN(Cc3ccccc3)CC2)c([N+](=O)[O-])c1 (stereo unspecified)
0.38 | 0.04 | COc1ccc(OC)c(S(=O)(=O)NCCC2=CCCCC2)c1
1.44 | -0.06 | Cc1ccc(NC(=S)N(CCCN(C)C)Cc2cc3cc4c(cc3[nH]c2=O)OCO4)c(C)c1
0.66 | -0.05 | COC(=O)c1ccc(C2Nc3ccccc3NC3=C2C(=O)CC(C)(C)C3)cc1 (stereo unspecified)
0.64 | 0.29 | Cc1c(C=O)c2ccccn2c1C(=O)c1ccccc1
1.5 | -0.3 | O=C(Nc1ncc(C(F)(F)F)cc1Cl)c1ccc(S(=O)(=O)N2CCOCC2)cc1
0.18 | -1.14 | Cc1ccc(-n2c(Cc3ccccc3)n[nH]c2=S)c(C)c1
0.13 | -0.47 | N#Cc1ccc(NC(=O)COC(=O)CCNS(=O)(=O)c2ccccc2)cc1
0.33 | -0.09 | C/C(CC(=O)Nc1ccc(OCc2ccccc2)cc1)=N\NC(=O)C(=O)Nc1ccccc1C
0.67 | -0.47 | O=C(NCCN1CCOCC1)c1ccc(Cl)c(S(=O)(=O)N2CCCC2)c1
0.54 | 1.54 | CC(C)C[C@H](NC(=O)c1nc[nH]c1C(=O)N[C@@H](CCCCNC(=O)OC(C)(C)C)C(=O)OC(C)(C)C)C(=O)OC(C)(C)C
2.17 | -0.34 | CC(C)C(=O)N=C1SC2CS(=O)(=O)CC2N1Cc1ccccc1 (stereo unspecified)
1.69 | -0.78 | CC(=O)Nc1cccc(-n2nnc(SCC(N)=O)n2)c1
0.96 | 0.59 | c1ccc2[nH]c(SCc3ccc(-c4nnco4)cc3)nc2c1
0.11 | 0.38 | Cc1ccc(C(C(=O)NC2CCCC2)N(Cc2cccs2)C(=O)c2csnn2)o1 (stereo unspecified)
0.67 | 1.95 | Cc1cc2oc(C(=O)Nc3ccc(S(=O)(=O)Nc4ncccn4)cc3)c(C)c2cc1Cl
0.04 | -0.42 | Cc1cccc(-n2ncc3c(NC4CCCCC4)ncnc32)c1
0.49 | 1.77 | CC(O)c1cccc(NC(=O)Cc2cccc3ccccc23)c1 (stereo unspecified)
4 | 0.84 | COc1ccc(CNC(=O)CSCc2cccc(Cl)c2)cc1
0.13 | -1.45 | N#Cc1cnc(SCC(=O)N2CCCC2)nc1N
0.32 | -1.38 | Cc1ccsc1/C=N/N1CCOCC1
0.05 | -2.78 | COc1cccc(-n2nnc3c(=O)n(Cc4ccccc4Cl)cnc32)c1
0.24 | 0.32 | O=C(Nc1ccccn1)c1ccc(Cl)c([N+](=O)[O-])c1
0.63 | 1.42 | COCCn1c(SCC(=O)N2CCOCC2)nnc1-c1ccncc1
1.42 | 0.26 | Cc1cccc(Cn2nnc3c2C(=O)c2ccccc2C3=O)c1
0.46 | -1.01 | Cc1ccc(N2CC(C(=O)Nc3ccc(S(=O)(=O)NCC4CCCO4)cc3)CC2=O)cc1C (stereo unspecified)
0.68 | 0.98 | CCOC(=O)c1c(C)[nH]c(C)c1S(=O)(=O)N1CCC(c2ccccc2)C1 (stereo unspecified)
1.6 | -0.18 | O=C(O)CN(c1ccccc1)C1SC(=O)NC1=O (stereo unspecified)
0.87 | -0.07 | O=C(O)c1c(N2CCCCC2)ccc([N+](=O)[O-])c1N1CCCCC1
0.5 | 0.68 | Cc1sc2ncn(CC(=O)NCCCN3CC(C)CC(C)C3)c(=O)c2c1S(=O)(=O)N1CC(C)CC(C)C1 (stereo unspecified)
1.86 | 0.01 | O=C(/C=C/c1ccc2c(c1)OCO2)N1CCCCC1
1.47 | 0.28 | Cc1ccc(Cn2cccc2/C=C2/C(=N)N3C=CSC3=NC2=O)cc1
1.2 | -0.44 | COc1ccc(CC(=O)OCn2nnc3ccccc3c2=O)cc1OC
0.31 | -0.4 | CC1CCN(c2nc3ccc(C(=O)NCCCN4CCCCC4C)cc3s2)CC1 (stereo unspecified)
0.79 | -1.19 | c1ccc(Cn2ncc3c(N4CCCCC4)ncnc32)cc1
1.12 | 0.86 | CC(C)(CO)NC(=O)C(c1ccccc1)c1ccccc1
2.08 | -0.28 | C[C@@H]1NC(=O)c2cc([N+](=O)[O-])cc(F)c2NCCC[C@@H](C(N)=O)NC(=O)[C@H](CC(N)=O)NC1=O
0.13 | 2.11 | CC(=O)c1c(C)[nH]c(C(=O)Nc2cccc(C)n2)c1C
1.27 | 0.55 | CC1CN(C(=S)NC2CCCC2)CC(C)O1 (stereo unspecified)

An excerpt of these results, field by field:
> O=C(Nc1ccccn1)c1ccc(Cl)c([N+](=O)[O-])c1
  KCNQ2 enhance = 0.24	KCNQ2 enhance baseline = 0.32

> COCCn1c(SCC(=O)N2CCOCC2)nnc1-c1ccncc1
  KCNQ2 enhance = 0.63	KCNQ2 enhance baseline = 1.42

> Cc1cccc(Cn2nnc3c2C(=O)c2ccccc2C3=O)c1
  KCNQ2 enhance = 1.42	KCNQ2 enhance baseline = 0.26

> Cc1ccc(N2CC(C(=O)Nc3ccc(S(=O)(=O)NCC4CCCO4)cc3)CC2=O)cc1C (stereo unspecified)
  KCNQ2 enhance = 0.46	KCNQ2 enhance baseline = -1.01

The listing continues.
KCNQ2 enhance | KCNQ2 enhance baseline | smiles
2.04 | -0.64 | CSc1cccc(NC(=S)N2CCC(N(C)C3CCCCC3)CC2)c1
0.67 | -0.4 | O=C(c1cc(-c2ccc(F)cc2)on1)N1CCCCCC1
0.18 | -0.59 | Cc1cccc(NC(=S)N(CCCN(C)C)Cc2cc3cc4c(cc3[nH]c2=O)OCO4)c1
0.57 | -0.22 | CS(=O)(=O)c1ccc2nc(NC(=O)CN3C(=O)C4CC=CCC4C3=O)sc2c1 (stereo unspecified)
0.71 | -0.75 | COc1ccc(C(=O)C2CCCN(C(=O)c3cccc(N4CCCC4=O)c3)C2)cc1OC (stereo unspecified)
0.02 | 0.9 | COc1ccc(S(=O)(=O)N2CCCCC2)cc1NCC(=O)Nc1ccc(C)cc1
0.57 | -0.48 | O=C(Nc1ccc2c(c1)OCO2)C(c1ccccc1)N1CCN(C(=O)c2ccco2)CC1 (stereo unspecified)
7.19* | -3.34* | COc1cccc(C(=O)Nc2ccncc2)c1OC

Five of these compounds in a different format.
mol	KCNQ2 enhance	KCNQ2 enhance baseline
c1ccc(-c2csc3ncn4nnnc4c23)cc1	2.54	0.11
COc1ccc(NC(=O)NC2(C(=O)N3CCCCC3)CCCCC2)cc1	0.57	0.36
CC(=O)c1c(C)[nH]c(C(=O)Nc2cccc(C)n2)c1C	0.13	2.11
Cc1cccc(Cn2nnc3c2C(=O)c2ccccc2C3=O)c1	1.42	0.26
Cc1cc(=O)[nH]c(SCCc2ccccc2)n1	1.3	-0.2

Screening data from PubChem.
